# PABP FP inh – blocks human PABP binding to poly(A) RNA. P11940. fluorescence polarization. inhibition, % at 35 µM. 290,000 compounds, 1% hits;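 active = 50% or more with normal probe brightness, or confirmed in later tests; inconclusive = above 50% with abnormal brightness, or retests that disagree; inactive = below 50% or failed in later tests; about a fifth of its hits are not listed in these tables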;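 note: calls also rest on retests at 20 µM and on dose response follow-up; controls were probe without protein and protein plus probe with vehicle; some compounds called inactive have numbers as strong as hits; many hits fall short of the cut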
# Target sequence (P11940 whole entry, looked up): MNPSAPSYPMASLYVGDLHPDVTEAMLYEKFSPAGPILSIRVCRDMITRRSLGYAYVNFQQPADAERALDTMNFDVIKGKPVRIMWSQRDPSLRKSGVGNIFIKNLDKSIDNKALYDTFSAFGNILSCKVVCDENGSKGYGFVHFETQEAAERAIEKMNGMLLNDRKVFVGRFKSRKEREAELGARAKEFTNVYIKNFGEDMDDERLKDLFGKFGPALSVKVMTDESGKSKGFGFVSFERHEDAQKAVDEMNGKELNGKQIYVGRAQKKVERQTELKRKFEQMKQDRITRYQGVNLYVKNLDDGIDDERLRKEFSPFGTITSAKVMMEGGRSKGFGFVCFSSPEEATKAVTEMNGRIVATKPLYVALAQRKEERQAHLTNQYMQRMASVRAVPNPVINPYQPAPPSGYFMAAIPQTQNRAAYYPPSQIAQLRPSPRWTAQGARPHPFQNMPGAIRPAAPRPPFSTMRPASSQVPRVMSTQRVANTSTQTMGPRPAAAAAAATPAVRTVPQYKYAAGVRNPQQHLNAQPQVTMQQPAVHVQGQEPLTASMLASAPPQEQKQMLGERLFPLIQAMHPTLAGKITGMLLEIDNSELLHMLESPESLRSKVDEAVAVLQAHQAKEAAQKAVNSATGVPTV
# eIF4H FP inh – inhibitors of RNA binding by human eIF4H | 290,000 compounds, 0.94% hits | AID 2012 | inhibition, % at 35 µM | eIF4H fluorescence polarization binding assay;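 active = 50% or more with normal probe brightness, or confirmed in later tests; inconclusive = above 50% with abnormal brightness, or retests that disagree; inactive = below 50% or failed in later tests; about a fifth of its hits are not listed in these tables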;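 note: calls also rest on retests at 20 µM and on dose response follow-up; 0% = protein and probe with vehicle and 100% = probe without protein; strong numbers were not always called active; many hits fall short of the cut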
# Rce1 inhib – inhibitors of yeast Ras-converting enzyme; yeast membranes, quenched prenylated peptide cleavage fluorescence; calls only; 290,000 compounds, 0.27% hits; AID 2563;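 active = fall in fluorescence gain of 50% or more versus controls, with final raw signal at or below 3038400; inconclusive = same 50% fall but final raw signal above 3038400; inactive = fall in fluorescence gain under 50%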;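 note: plate controls were neutral control wells for no effect and wells lacking membranes for full effect; tested at 10 µM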
# MT1-MMP act inh – inhibitors of human MT1-MMP activation; P50281; HT1080 RFP-PRO-GFP cells, GFP/RFP ratio fluorescence, overnight; percent of plate control window, DMSO zero; GFP/RFP ratio change, % at 20 µM; 360,000 compounds, 0.061% hits; AID 651647;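 active = GFP/RFP ratio change of at least 30% with cell ATP level not reduced by more than half and red fluorescence within 50% of control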; note: strong numbers were not always called active
#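 system = RFP-PRO-GFP reporter HT1080 cells | dosing = 20 µM single dose, 1% DMSO | timing = overnight cell settling, then overnight compound exposure, 37 °C, 5% CO2 | read-out basis = GFP/RFP fluorescence ratio | controls = DMSO and RFP-L50D-GFP cell wells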
# Env fusion inh – blocks HIV Env-driven cell-cell fusion | HeLa-JRFL Env/CEM21 cell fusion, luciferase | inhibition, % at 12.3 µM | 360,000 compounds, 1.1% hits | AID 651610;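 active = mean replicate inhibition score of at least 50 and every replicate individually at or above 50; inconclusive = only one of the two criteria met; inactive = mean below 50 and not all replicates reaching 50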;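 note: 0% = plate neutral controls and 100% = maraviroc near 300 nM; one replicate is shown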
# UUG fidelity – yeast start codon fidelity modulation; S. cerevisiae UUG-firefly luciferase reporter, luminescence/redox ratio; activity score, % at 18.7 µM; 350,000 compounds, 0.13% hits; AID 602363;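 active = replicate mean at a twofold rise or more, about +100% in these data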;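 note: firefly luciferase made from a UUG start codon reports start codon fidelity; reporter light over untreated wells divided by growth signal over untreated wells; some hits fall short of that in this replicate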
# CSC inhib – blocks cancer stem cells; 300,000 compounds, 1.1% hits; cancer stem cell-like cells viability, luminescence; AID 2717; inhibition, % at 7.5 µM;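 active = mean at 75% or more and at least half the replicates too; inconclusive = mean and replicates disagree; tested in HMLE shEcad cells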;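 note: 0% = median of negative and 100% = median of positive control wells; the first replicate is given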
# eIF4H FP inh retest – further read-out of eIF4H FP inh, marked with its call; inhibition, %; compound at 20 µM; confirmation average;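 mean of two retest wells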
# PABP FP inh retest – second read-out of PABP FP inh, no call of its own (marks repeat the call); inhibition, %; compound at 20 µM; confirmation repeats;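 mean of two retest wells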
# MT1-MMP act inh RFP – recorded beside MT1-MMP act inh, whose call it bears; RFP signal change, %; measured here: RFP expression control read;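 0 = vehicle wells; hits needed this value within 50% of zero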
# Active calls of the source: *; i = inactive; ? = inconclusive; / = no result given; & = joins results of further samples. This is a subset; rates above refer to the full screens.
SMILES,PABP FP inh,eIF4H FP inh,Rce1 inhib,MT1-MMP act inh,MT1-MMP act inh RFP,Env fusion inh,UUG fidelity,CSC inhib,others
COCC(=O)N1CCC(Oc2ccc(C(=O)N3CCCCCC3)cc2)CC1,1,-1,i,2,-1,/,1,-1,
O=C(Nc1cccc(O)c1)C(Cc1ccccc1)N1C(=O)c2cccc3cccc(c23)C1=O (configuration not stated),-12,-13,i,-10,-2,-22,/,-12,
COc1ccc(/C=C/C(=O)O)cc1S(=O)(=O)NCc1ccco1,17,18,i,1,1,3,/,-5,
O=C(/C=C/c1cccc(Cl)c1)OCc1cn2cc(Cl)ccc2n1,8,5,i,0,5,28,/,/,
Cc1ccc(O)c(NC(=O)CCC2CCCCC2)c1,7,-3,i,-1,-4,/,/,/,
Cc1c(C(=O)N2CCN(Cc3ccc4c(c3)OCO4)CC2)cccc1[N+](=O)[O-],-1,1,i,-2,-1,/,/,-7,
O=c1c(C(c2ccc(O)cc2)c2c(O)nc3n(c2=O)CCCS3)c(O)nc2n1CCCS2,31,59,i,0,2,/,-14,-16,eIF4H FP inh retest=26;PABP FP inh retest=41
O=C(O)CSc1cn(Cc2ccccc2)c2ccccc12,9,-6,i,-7,-1,-15,-9,4,
O=C(OCCN1C(=O)c2ccccc2C1=O)c1ccc(S(=O)(=O)N2CCCCCC2)cc1,11,12,i,-2,4,-46,-16,5,
O=C(c1ccco1)N1CCN(c2nc3ccccc3c(=O)n2-c2ccccc2)CC1,-4,-8,i,6,6,27,9,16,
CCN(CC)C1CCCCC1NS(=O)(=O)c1ccc(Cl)cc1 (configuration not stated),4,4,i,3,2,-68,-7,8,
Cc1cccc(Cn2c(SCC(=O)Nc3ccccc3)nc3c2c(=O)[nH]c(=O)n3C)c1,7,6,i,0,-2,16,10,6,
Cc1ccccc1OCC(=O)OCC(=O)c1cc(C)n(C2CC2)c1C,/,/,/,6,3,2,-7,/,
Cc1cccnc1NC(=O)C1COc2ccccc2O1 (configuration not stated),8,-1,i,4,6,3,/,-2,
CCOc1cc(C=O)c(Br)cc1OC1CCCC1,-3,-12,i,-7,-7,-19,-23,-14,
CCCCC(=O)Nc1c2c(nn1-c1ccc([N+](=O)[O-])cc1)CS(=O)(=O)C2,0,-7,i,1,0,1,-9,-19,
COc1cc(C(=O)NC(=S)N(CCc2ccccc2)CCc2ccccc2)cc(OC)c1OC,7,11,i,3,-14,34,-25,49,
CN1N=C2c3ccccc3CCC2C1c1ccc(C(F)(F)F)cc1 (configuration not stated),9,-2,i,/,/,/,/,-13,
Cc1ccc(NC(=O)COC(=O)C2CCN(c3ccc(C(F)(F)F)cn3)CC2)cc1,/,/,/,2,1,-12,-4,/,
CC(=O)c1c(C)[nH]c(C2=NNC(=NC(C)(C)C)SC2)c1C,7,18,i,1,3,-28,/,/,

# Structural class: the compounds so far containing fluorine.
SMILES,PABP FP inh,eIF4H FP inh,Rce1 inhib,MT1-MMP act inh,MT1-MMP act inh RFP,Env fusion inh,UUG fidelity,CSC inhib,others
CN1N=C2c3ccccc3CCC2C1c1ccc(C(F)(F)F)cc1 (configuration not stated),9,-2,i,/,/,/,/,-13,
Cc1ccc(NC(=O)COC(=O)C2CCN(c3ccc(C(F)(F)F)cn3)CC2)cc1,/,/,/,2,1,-12,-4,/,

# At a glance, four of the compounds above:
SMILES,PABP FP inh,eIF4H FP inh,Rce1 inhib,MT1-MMP act inh,MT1-MMP act inh RFP,Env fusion inh,UUG fidelity,CSC inhib,others
COCC(=O)N1CCC(Oc2ccc(C(=O)N3CCCCCC3)cc2)CC1,1,-1,i,2,-1,/,1,-1,
O=C(Nc1cccc(O)c1)C(Cc1ccccc1)N1C(=O)c2cccc3cccc(c23)C1=O (configuration not stated),-12,-13,i,-10,-2,-22,/,-12,
COc1ccc(/C=C/C(=O)O)cc1S(=O)(=O)NCc1ccco1,17,18,i,1,1,3,/,-5,
O=C(/C=C/c1cccc(Cl)c1)OCc1cn2cc(Cl)ccc2n1,8,5,i,0,5,28,/,/,

# Among those listed so far, these contain a CF3 group:
SMILES,PABP FP inh,eIF4H FP inh,Rce1 inhib,MT1-MMP act inh,MT1-MMP act inh RFP,Env fusion inh,UUG fidelity,CSC inhib,others
CN1N=C2c3ccccc3CCC2C1c1ccc(C(F)(F)F)cc1 (configuration not stated),9,-2,i,/,/,/,/,-13,
Cc1ccc(NC(=O)COC(=O)C2CCN(c3ccc(C(F)(F)F)cn3)CC2)cc1,/,/,/,2,1,-12,-4,/,

# Next section:
SMILES,PABP FP inh,eIF4H FP inh,Rce1 inhib,MT1-MMP act inh,MT1-MMP act inh RFP,Env fusion inh,UUG fidelity,CSC inhib,others
Cc1cccc(NC(=O)CSc2nnc(Cc3ccccc3)o2)c1,2,-16,i,2,4,8,/,16,
Cc1occc1C(=O)N/N=C/C(Br)=C/c1ccccc1,15,2,i,4,-8,-81,-32,6,
O=C(NNC(=O)c1ccc(F)cc1F)c1ccc(-n2cnnn2)cc1,15,-5,i,1,0,/,-10,/,
CCN1CCCC1CNCc1ccccc1OCc1ccc(F)cc1 (configuration not stated),29,7,i,2,4,/,-15,35,
Cc1cc(OCC(=O)C(C)(C)C)c2c(C)c(C)c(=O)oc2c1,0,-12,i,-4,-7,/,-17,-12,
COCCNC(=O)C1(C)C=CC2(CCCCC2)N1C(=O)c1ccccc1 (configuration not stated),-5,-2,i,3,5,-2,-11,3,
Cc1cccc(C2c3[nH]c4ccccc4c3CCN2C(=O)c2cc(CC(C)C)[nH]c(=O)n2)n1 (configuration not stated),-7,-5,i,-3,0,0,/,-8,
Cn1c(=O)c2c(nc(SCC(=O)NC3CCCC3)n2C)n(C)c1=O,4,-5,i,2,1,2,0,8,
COc1ccc([C@H]2CC(=O)C=C(c3cccc4c3sc3ccccc34)C2)cc1OC,/,/,/,3,-6,?,-19&-4,22,
O=C(O)CC(NNC(=O)c1ccccc1)C(=O)Nc1ccc([N+](=O)[O-])cc1 (configuration not stated),-6,1,i,0,0,-2,-12,/,
CCCCN1CC(=O)N2[C@H]3c4ccccc4OC[C@@H]3[C@H](C(=O)OCC)[C@]2(C)C1=O,/,/,/,0,3,-9,-11,-10,
CCOc1ccc(-c2[nH]ncc2Oc2ccccc2OC)c(O)c1,-6,-1,i,0,-5,/,/,2,
COc1cc(C(=O)NNC(=O)C2CCCC2)cc(OC)c1OC,-2,-6,i,1,-5,-8,2,-3,
CCOC(=O)C1C(C)=C(Nc2ccc(OC)cc2)C(=O)N1c1ccc(OC)cc1 (configuration not stated),1,-13,i,3,2,4,/,2,
CC(O)c1nc2ccccc2n1CC(=O)Nc1ccc(F)cc1Cl (configuration not stated),1,15,i,-2,1,8,/,1,
C/C(CC(=O)Nc1ccc2c(c1)OCCO2)=N\NC(=O)c1ccccc1Cl,-1,-3,i,-2,1,-12,-24,/,
O=C(NC1CCN(Cc2ccccc2)CC1)c1cccc(S(=O)(=O)Nc2cc(C(F)(F)F)ccc2Cl)c1,-1,2,i,1,-9,9,11,21,
O=C(NNc1nc2c(F)cccc2s1)c1ccccc1,-8,-4,i,3,5,21,-26,1,
Cc1nn(C(C)C(=O)NCCN2CCCC2)c(=O)c2c1sc1ccccc12 (configuration not stated),11,-6,i,-1,5,3,-4,-3,
Cc1cc(C)n(-c2nc(N(C)C)nc(N3CCOCC3)n2)n1,-4,7,i,3,3,-132,-27,-11,
COc1ccc(S(=O)(=O)Nc2ccc(F)cc2)cc1N(C)S(=O)(=O)c1ccc(Cl)cc1,-6,-5,i,-2,-20,/,-14,-10,
O=C(c1ccc(Br)o1)N(c1ccc(Br)cc1)C1C=CS(=O)(=O)C1 (configuration not stated),10,-15,i,2,0,/,0,-12,
S=C(NCc1ccccc1)Nc1ccc2cn[nH]c2c1,9,12,i,-3,-7,-93,-30,-9,
CCO[C@H]1OC(C(=O)O)=C[C@@H](C(C)(C)C)[C@@H]1CCCO,/,/,i,-1,1,-6,-2,13,
Cc1cccc(NC(=S)N2CCN(c3ccccc3)CC2)c1,-7,-2,i,2,5,27,/,-14,
CC(=O)N1CCN(C(=O)Nc2cccc(C(F)(F)F)c2)CC1,-1,0,i,-1,4,/,-16,-4,
Cn1c(N2CCN(c3ccccn3)CC2)nc2c1c(=O)n(Cc1ccc(Cl)cc1)c(=O)n2C,-11,0,i,-3,-17,/,9,18,
C/C(=N\Nc1ccc(Cl)cc1)c1ccccn1,1,0,i,2,4,-16,-25,26,
CNC(=O)c1c(NC(=O)c2ccco2)sc2c1CCC2,-5,9,i,2,-1,-32,-19,12,
CN(C)S(=O)(=O)c1cccc(NC(=O)c2ccc(Sc3nncn3C)c([N+](=O)[O-])c2)c1,7,-2,i,3,-4,10,-16,-13,
N#Cc1cc[n+](CC(=O)c2ccc(NC(=O)c3ccccc3)cc2)cc1,-5,-1,i,-2,-1,16,-28,8,
Nc1c(N(Cc2ccccc2)C(=O)COc2cccc(Cl)c2)c(=O)[nH]c(=O)n1Cc1ccccc1,/,/,i,-4,-6,23,/,-2,
CCNc1ccc(C(=O)OCC(=O)NCc2ccc(C)cc2)cc1[N+](=O)[O-],-2,6,i,1,2,14,-1,11,
COc1cc2c3nc4n(c(=O)c3n(CC(=O)N3CCCC3)c2cc1OC)CCS4,/,/,/,-5,-5,1,-11,/,
CCN1CCN(CCCNC(=O)C2c3ccccc3C(=O)N(c3ccc(OC)cc3)C2c2ccc(OC)cc2)CC1 (configuration not stated),11,-12,i,2,6,13,/,-3,
Cn1c(SCC(=O)NC2CC2)nnc1C(F)(F)F,-2,-8,i,2,-1,-6,7,-13,
O=C(Nc1ccccc1F)C1(c2ccccc2)CC1(Cl)Cl (configuration not stated),17,2,i,-6,-3,8,2,63,
COc1ccc(C(=O)C2CCCN(S(=O)(=O)c3cccc(C)c3)C2)c(C)c1 (configuration not stated),-7,-3,i,-6,-10,-29,-5,17,
Fc1ccc(/C=C2\CCCC3=C2Nc2ncnn2C3c2ccc(F)cc2)cc1 (configuration not stated),9,11,/,-24,-18,-149,12,-1,
Cc1nc2sccn2c1-c1nc(-c2cc3ccccc3o2)cs1,37,-13,i,0,-3,/,/,-14,
COc1ccc(C23CC4CC(CC(C(=O)O)(C4)C2)C3)c(F)c1,7,76,i,2,1,7,-1,-12,eIF4H FP inh retest=0;PABP FP inh retest=0
N#Cc1cccc(C#N)c1Oc1ccc(N)cc1,-15,-12,i,6,7,3,-19,1,
COc1ccc(-c2nnc(NC(=O)c3ccccc3C)o2)cc1,-13,5,i,4,6,17,-5,21,
COc1ccc2c(c1)c1ncn(CC3CCCO3)c(=O)c1n2C (configuration not stated),-2,-9,i,3,2,-7,/,-4,
Cc1cccc(NC(=O)CN2C(=O)S/C(=C\c3cccn3-c3cccc(C(=O)O)c3)C2=O)c1,44,71,i,1,5,20,-17,3,eIF4H FP inh retest=1;PABP FP inh retest=0

# Source: PubChem (several laboratories)
